# eIF4H FP inh = human eIF4H binding inhibitors, primary screen, translation initiation inhibitor project, biochemical, uHTS, fluorescence polarization; actives 0.94% (n = 290,000); inhibition, % at 35 µM; Eukaryotic translation initiation factor 4H (Homo sapiens), Q15056; AID 2012, 2009; eIF4H fluorescence polarization binding assay;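 active = 50% or more with normal probe brightness, or confirmed in later tests; about a fifth of its hits are not listed in these tables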;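 also: calls also rest on retests at 20 µM and on dose response follow-up; 0% = protein and probe with vehicle and 100% = probe without protein; strong numbers were not always called active; many hits fall short of the cut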
# PABP polyA inh = PABP poly(A) RNA binding inhibitors, primary screen, biochemical, fluorescence polarization, uHTS; Polyadenylate-binding protein 1 (Homo sapiens), P11940; inhibition, % at 35 µM; actives 1% (n = 290,000); AID 2014, 2009;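 active = 50% or more with normal probe brightness, or confirmed in later tests; about a fifth of its hits are not listed in these tables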;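 also: calls also rest on retests at 20 µM and on dose response follow-up; controls were probe without protein and protein plus probe with vehicle; some compounds called inactive have numbers as strong as hits; many hits fall short of the cut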
# Target sequence (P11940 whole entry, looked up): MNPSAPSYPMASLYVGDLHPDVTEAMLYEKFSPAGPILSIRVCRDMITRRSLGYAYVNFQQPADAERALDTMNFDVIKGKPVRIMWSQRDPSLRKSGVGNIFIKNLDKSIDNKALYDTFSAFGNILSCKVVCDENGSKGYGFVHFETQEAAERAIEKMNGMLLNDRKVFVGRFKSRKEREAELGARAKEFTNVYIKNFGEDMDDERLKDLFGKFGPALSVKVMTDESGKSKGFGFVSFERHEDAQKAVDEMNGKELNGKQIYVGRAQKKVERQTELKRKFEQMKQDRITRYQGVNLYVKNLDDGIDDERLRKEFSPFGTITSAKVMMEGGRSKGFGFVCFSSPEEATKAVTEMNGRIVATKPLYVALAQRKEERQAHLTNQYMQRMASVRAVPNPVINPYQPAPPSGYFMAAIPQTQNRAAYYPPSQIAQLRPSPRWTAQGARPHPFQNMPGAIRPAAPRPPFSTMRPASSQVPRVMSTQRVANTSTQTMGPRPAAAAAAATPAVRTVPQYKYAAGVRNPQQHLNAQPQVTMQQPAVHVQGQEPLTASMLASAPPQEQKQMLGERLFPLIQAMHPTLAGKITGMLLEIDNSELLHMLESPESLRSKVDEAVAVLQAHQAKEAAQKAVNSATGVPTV
# CSC inhib = cancer stem cell viability inhibitors, primary screen, luminescence; inhibition, % at 7.5 µM; cancer stem cell-like cells viability; AID 2717, 2010; actives 1.1% (n = 300,000);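 active = mean at 75% or more and at least half the replicates too; tested in HMLE shEcad cells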;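 also: 0% = median of negative and 100% = median of positive control wells; the first replicate is given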
# MT1-MMP act inh = blockers of MT1-MMP proenzyme processing, primary screen, HT1080 RFP-PRO-GFP cells, GFP/RFP fluorescence; GFP/RFP ratio change, % at 20 µM; actives 0.061% (n = 360,000); GFP/RFP ratio fluorescence, overnight; percent of plate control window, DMSO zero; AID 651647, 2012;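 active = GFP/RFP ratio change of at least 30% with cell ATP level not reduced by more than half and red fluorescence within 50% of control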; also: strong numbers were not always called active
#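 Material – HT1080 RFP-PRO-GFP cells · Control set – DMSO wells and RFP-L50D-GFP cells · Incubation – overnight cell settling, then overnight compound exposure, 37 °C, 5% CO2 · Compound dosing – single-point 20 µM compound, 1% DMSO · Read-out – GFP/RFP fluorescence ratio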
# Env fusion inh = inhibitors of HIV-1 Env-driven cell-cell fusion, primary screen, HeLa-JRFL effector, CEM21 target cells, luciferase; inhibition, % at 12.3 µM; AID 651610, 2012; actives 1.1% (n = 360,000);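 active = mean replicate inhibition score of at least 50 and every replicate individually at or above 50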;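 also: 0% = plate neutral controls and 100% = maraviroc near 300 nM; one replicate is shown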
# Rce1 inh = yeast Rce1p protease inhibitors, primary screen, biochemical, fluorescence, cell-free homogeneous | CAAX prenyl protease 2 (Saccharomyces cerevisiae (strain ATCC 204508 / S288c)), Q03530 | yeast membranes, quenched prenylated peptide cleavage fluorescence | calls only | actives 0.27% (n = 290,000);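 active = fall in fluorescence gain of 50% or more versus controls, with final raw signal at or below 3038400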;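 also: plate controls were neutral control wells for no effect and wells lacking membranes for full effect; tested at 10 µM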
# Yeast UUG start = modulators of yeast start codon fidelity, primary screen, whole organism, S. cerevisiae, single point, plate reader. S. cerevisiae UUG-firefly luciferase reporter, luminescence/redox ratio. activity score, % at 18.7 µM. actives 0.13% (n = 350,000). AID 602363, 2012;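 active = replicate mean at a twofold rise or more, about +100% in these data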;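 also: firefly luciferase made from a UUG start codon reports start codon fidelity; reporter light over untreated wells divided by growth signal over untreated wells; some hits fall short of that in this replicate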
# eIF4H FP inh retest = recorded beside eIF4H FP inh, whose call it bears; inhibition, %; compound at 20 µM; confirmation average;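 mean of two retest wells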
# PABP polyA inh retest = also measured in PABP polyA inh; calls as there; inhibition, %; compound at 20 µM; confirmation repeats;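 mean of two retest wells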
# MT1-MMP act inh RFP = recorded beside MT1-MMP act inh, whose call it bears; RFP signal change, %; measured here: RFP expression control read;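 0 = vehicle wells; hits needed this value within 50% of zero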
# * marks the source's active call; other numbers are inactive results; i = inactive; . = no result given; & = joins results of further samples; [ ] = dose if it differs, or a comment.
SMILES,eIF4H FP inh,PABP polyA inh,CSC inhib,MT1-MMP act inh,MT1-MMP act inh RFP,Env fusion inh,Rce1 inh,Yeast UUG start,others
O=C(Cn1cnnn1)Nc1cccc(S(=O)(=O)N2CCCCC2)c1,19*,72,-11,5,6,-4,i,.,eIF4H FP inh retest=62*;PABP polyA inh retest=41
COc1ccc(OC)c(NC(=O)CN2C(=O)COc3ccc(S(=O)(=O)N4CCCC4)cc32)c1,-2,1,-10,5,2,11,i,1,
COc1ccc(C2Nc3ccc(Br)cc3C(c3ccccc3)N2CC(=O)O)cc1 (stereo not given),8,14,-7,1,-1,-5,i,-6,
C=CCNC(=O)CSc1nnc(-c2ccccc2Cl)n1-c1c(C)n(C)n(-c2ccccc2)c1=O,-7,6,4,-1,6,.,i,.,
O=C(NCC1CC1)Nc1cccs1,3,0,-8,-4,1,9,i,.,
Cc1cnc(C(=O)OCC(=O)Nc2ccc(Br)c(C)c2)cn1,.,.,-6,-1,0,.,.,2,
Cc1cc(OCC(=O)N(Cc2ccco2)C2CCS(=O)(=O)C2)cc(C)c1Cl (stereo not given),3,-3,-11,-3,-6,5,i,-6,
c1ccc(-c2csc(Nc3ccc4c(c3)OCCO4)n2)cc1,2,18,19,0,3,i,i,-31,
CCOc1nc(NCCO)nc(Nc2ccc([N+](=O)[O-])cc2)n1,-12,-10,-9,-2,-4,25,i,-9,
Cc1ccc(S(=O)(=O)N2CCOCC2)cc1NC(=O)COC(=O)CNC(=O)c1ccc(Cl)cc1Cl,-3,0,13,-3,-1,-6,i,8,
CCc1nc2ccc(C(=O)NCc3ccccc3OC)cn2c1N(CC)Cc1cccc(Br)c1,.,.,.,-13,-12,9,.,-4,
CNC(=S)NNC(=O)c1cccn(Cc2ccccc2)c1=O,-6,26,.,-5,0,9,i,-34,
O=C(O)/C=C/C(=O)Nc1nccs1,-4,8,-5,-3,0,2,i,-26,
Cc1nnc2n1N=C(c1ccccc1)CS2,-14,-3,4,0,1,-34,i,-21,
CCn1c(SCc2c(Cl)cccc2Cl)nnc1-c1nn(-c2ccccc2)ccc1=O,4,-6,-9,-4,-5,.,i,-16,
CC(C)(C)C(=O)Cn1ncc(N2CCCC2)c(Br)c1=O,-1,2,-1,6,3,.,i,-25,
CC(/C=N/NC(=O)c1cc(-c2cccs2)[nH]n1)=C\c1ccccc1,-14,4,.,4,1,-5,i,-7,
O=C(C1CCCCC1)N1CCN(C(=O)C2CCCCC2)CC1,0,4,-21,3,3,.,i,-13,
COc1cccc(C2=CC(=O)C[C@H](c3ccc4c(c3)OCO4)C2)c1OC,.,.,2,1,-2,.,.,-13,
Cc1cc(OC(=O)c2cccc(C(F)(F)F)c2)c([N+](=O)[O-])c(=O)[nH]1,-2,-1,-10,0,1,-11,i,-11,
CCCOc1ccc(N)cc1N,79*,102*,30,-37,3,.,i,5,
COc1ccc(CNC(=O)CN(C)Cc2ccc(SC)cc2)cc1,-8,-14,.,3,1,20,i,1,
O=C(N/N=C/c1oc(O)c2ccccc12)c1ccccc1O,14,-1,-6,-10,-5,23,i,-4,
CCOC(=O)CNC(=O)CSc1nc(NCc2ccccc2)nc(N(C)C)n1,5,3,.,5,-2,.,i,-8,
Cc1ccc(N/N=C2\COC(C)(C)CC2=O)cc1,0,21,0,2,2,8,i,.,

# Next records follow.
SMILES,eIF4H FP inh,PABP polyA inh,CSC inhib,MT1-MMP act inh,MT1-MMP act inh RFP,Env fusion inh,Rce1 inh,Yeast UUG start,others
Cc1nnc(NC(=O)Cc2ccc(OCc3c(C)noc3C)cc2)s1,-2,-2,-8,6,5,-41,i,2,
Cc1ccccc1CNC(=O)c1ccccc1,-1,-12,-1,-6,-7,.,i,-10,
Cc1ccccc1NC(=O)Cc1nc(COC(=O)c2ncc(Cl)c(Cl)c2Cl)cs1,.,.,.,-1,-1,-9,.,-13,
CCOC(=O)C1=C(O)C(=O)N(Cc2ccccc2)C1,-2,0,0,-2,1,-14,i,-1,
NC(=O)c1ccccc1OCC(=O)Nc1ccc(Cl)c(Cl)c1,-1,-6,-2,5,-5,-192,i,.,
CSc1ccccc1NC(=O)Nc1cccc2ccccc12,3,-10,12,-2,1,-10,i,-16,
C=CCNC(=O)C(=O)N/N=C/c1cccc(Br)c1,-4,-2,-6,2,3,-15,i,.,
O=c1c2cnn(-c3ccc(F)cc3)c2ncn1Cc1ccccc1,-2,0,13,3,-8,.,i,-11,
CCCNC1CCS(=O)(=O)C1 (stereo not given),-7,2,-5,5,4,.,i,-18,
O=C(N/N=C/c1ccccc1)c1sccc1OCc1ccc(F)cc1,2,-10,.,-1,-12,.,i,-3,
O=C(CC1COc2ccccc2O1)Nc1ccccn1 (stereo not given),10,-2,-4,-7,2,.,i,.,
Nc1nc(NCCCN2CCOCC2)nc(Nc2cccc(F)c2)c1[N+](=O)[O-],-4,2,-1,-3,-3,-61,i,.,
CCN1CCN(c2ccc(N3CCN(S(=O)(=O)c4cccc([N+](=O)[O-])c4)CC3)nn2)CC1,.,.,.,-4,-2,11,.,-16,
COc1ccc(-c2csc(COC(=O)C(C)(C)C)n2)cc1,1,-4,-1,9,1,-5,i,.,
CCC(=O)c1cn(CC(=O)OC)c2ccccc12,-4,2,5,1,3,.,i,-10,
COC(=O)CC1COc2ccccc2N1C(=O)c1ccc(Br)cc1 (stereo not given),2,6,-7,6,0,21,i,4,
Cc1cc(C)n(-c2ccc(C(=O)Nc3ccc(S(=O)(=O)NCc4ccco4)cc3)cc2)n1,3,-4,13,6,-19,48,i,-14,
COc1cccc(CNC(=O)[C@H](CC(C)C)NC(=O)N2CCn3c2nc2ccccc23)c1,6,9,-5,2,-1,-2,i,-1,
O=C(CN1C(=O)C2CCCN2c2ncc(Cl)cc21)NCc1ccc2c(c1)OCO2 (stereo not given),-6,-3,.,6,8,.,.,-19,
Cc1ccccc1NC(=O)CN1C(=O)CSc2ccc(S(=O)(=O)N3CCCCC3)cc21,.,.,-13,1,3,11,i,-19,
O=C(NNC(=S)Nc1ccc(C(=O)O)c(O)c1)c1ccncc1,.,.,.,-1,1,15,.,-18,
O=C(NC1=NCCS1)c1cccc2ccccc12,-4,-12,4,-2,-3,-10,i,.,
CC(C)NC(=S)Nc1cccc2cnccc12,11,-3,21,.,.,.,i,-19,
O=C(C=Cc1ccco1)c1ccc([N+](=O)[O-])cc1,.,.,.,0,6,-13,.,-31,
C#CCOCCOCCOCCNc1nc(N2CCN(C(=O)[C@H](CCCCN)n3cc(CCC(=O)O)nn3)CC2)nc(N2CCN(C(=O)[C@H](Cc3ccc(O)cc3)n3cc(CCO)nn3)CC2)n1,.,.,.,-2,4,-24,.,31,

# (next part)
SMILES,eIF4H FP inh,PABP polyA inh,CSC inhib,MT1-MMP act inh,MT1-MMP act inh RFP,Env fusion inh,Rce1 inh,Yeast UUG start,others
O=C(CCN1CCOCC1)NNC(=O)Nc1cccc([N+](=O)[O-])c1,4,4,-4,4,2,-3,i,-18,
COCCn1c(=NC(=O)CSCC(=O)N2CCOCC2)sc2ccccc21,4,4,-1,0,4,-7,i,-3,
CC1Cn2c(COc3ccccc3)nnc2S1 (stereo not given),-7,-4,.,2,2,8,i,-18,
CC(=O)NC(CC(C)C)C(=O)NC(Cc1ccccc1)C(N)=O (stereo not given),-2,4,.,.,.,.,i,1,
CN1/C(=C\C(=O)Nc2ccc(Cl)cc2)C(C)(C)c2ccccc21,-2,-2,61,5,5,-5,i,.,
Cc1cc(C)cc(NC(=O)C(OC(=O)c2ccc(NC(=O)CC#N)cc2)c2ccccc2)c1 (stereo not given),.,.,.,-1,2,1,i,.,
CCOc1cc(NC(=O)c2ccccc2C(=O)O)c(OCC)cc1NC(=O)c1ccccc1F,-3,11,5,8,6,-1,i,6,
O=C(NCc1cn2ccccc2n1)c1ccccc1,-1,-13,-20,2,1,.,i,25,
O=C(c1ccc(S(=O)(=O)Nc2cccc(C(F)(F)F)c2)cc1)N1CCOCC1,-4,-5,-2,0,-7,13,i,6,
O=[N+]([O-])c1cc(C(F)(F)F)c(Cl)cc1N1CCN(CCO)CC1,-10,-1,-15,2,-3,23,i,.,
Cc1ccn2c(=O)nc(SCC(=O)N3CCCCCC3)nc2c1,.,.,-14,2,7,-62,i,-7,
CC(=O)Nc1ccc(-c2nn[nH]n2)cc1,-1,5,-6,-1,3,2,i,4,
Cc1c(NC(=O)CSc2ccccc2F)c(=O)n(-c2ccccc2)n1C,2,4,0,6,6,-5,i,-2,
Nc1c(C(=O)OCC(=O)Nc2ccc(Cl)cc2[N+](=O)[O-])[nH]c(=O)[nH]c1=O,5,-6,-14,5,2,0,i,-20,
C[C@H](CO)N1C[C@H](C)[C@@H](CN(C)Cc2ccccn2)Oc2ncc(-c3ccccc3)cc2C1=O,.,.,.,-1,1,-8,.,-21&-33&-27,
NC(=S)N/N=C1\CC(n2nnn(-c3cccc(Cl)c3)c2=S)C2COC1O2 (stereo not given),5,-3,-7,4,0,-8,i,.,
O=C(Nc1ccccc1Cc1ccccc1)C1CC(=O)N(c2ccc3c(c2)OCCO3)C1 (stereo not given),-5,-11,-16,0,1,-17,i,7,
O=C(C1=C[C@H](c2csc3ccccc23)C[C@H](OCCCCO)O1)N1CCN(Cc2ccc3c(c2)OCO3)CC1,-12,-8,19,-3,-12,33,i,0,
CCOC(=O)c1c(C)n(C)c2ccc(OCC(O)CNCCc3ccccc3)cc12 (stereo not given),-3,8,2,1,0,18,i,-6,
O=C(NCC(c1ccccc1Cl)N1CCCC1)c1ccc(N2CCCC2=O)cc1 (stereo not given),.,.,.,-2,0,10,.,-2,
S=C(Nc1cccnc1)NC1CC2CCC1C2 (stereo not given),-7,2,-1,1,0,3,i,-3,
COCCCn1nnnc1SCC(=O)N1CCCC1,-10,-9,-7,-1,0,-88,i,-25,
COCCCN1C(=O)N(c2ccccc2)C(=O)C1CC(=O)Nc1ccc(F)cc1 (stereo not given),-1,10,-11,3,3,-4,i,8,
COc1cc(OC)cc(C(=O)OCC(=O)Nc2ccc3[nH]c(=O)[nH]c3c2)c1,.,.,-3,-3,1,.,i,-11,
CCC(=O)NC(C)C(c1cccs1)N1CCOCC1 (stereo not given),.,.,-6,5,1,.,i,3,
COc1cc2ccccc2cc1C(=O)NC(=S)Nc1cccc(C(=O)O)c1,-2,13,-15,8,4,-14,i,.,
CCO[C@H]1OC(C(=O)Nc2ccccc2)=C[C@@H](c2coc3ccccc3c2=O)[C@@H]1CCCO,-4,3,-11,2,2,16[16.7 µM],i,21&8,
CCCCNc1nc2c(c(=O)n(Cc3ccccc3)c(=O)n2C)n1C,7,21,-5,2,2,3,i,-17,

# Structures shown so far that have a furan ring, fused or not, in the order listed:
SMILES,eIF4H FP inh,PABP polyA inh,CSC inhib,MT1-MMP act inh,MT1-MMP act inh RFP,Env fusion inh,Rce1 inh,Yeast UUG start,others
Cc1cc(OCC(=O)N(Cc2ccco2)C2CCS(=O)(=O)C2)cc(C)c1Cl (stereo not given),3,-3,-11,-3,-6,5,i,-6,
O=C(N/N=C/c1oc(O)c2ccccc12)c1ccccc1O,14,-1,-6,-10,-5,23,i,-4,
Cc1cc(C)n(-c2ccc(C(=O)Nc3ccc(S(=O)(=O)NCc4ccco4)cc3)cc2)n1,3,-4,13,6,-19,48,i,-14,
O=C(C=Cc1ccco1)c1ccc([N+](=O)[O-])cc1,.,.,.,0,6,-13,.,-31,
